Assay outcomes deposited in PubChem BioAssay by National Center for Advancing Translational Sciences (NCATS).
RE007 growth inh = less growth of the S. pombe RE007 Vpr strain | AID 651644 | Potency, µM (series often up to 92.2 µM), for inactives: top-dose activity change, negative = less growth | S. pombe RE007 Vpr strain, BacTiter-Glo ATP luminescence, 24 h; control for the full effect not named in the record | actives 0.21% (n = 360,000); active = well fitted falling curve with a large enough effect; inconclusive = small, poorly fitted or top-dose-only effect; inactive = no such curve, though single readings can be large or run the other way;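 further: on the % scale 0 is the no-effect control and ±100 the full control effect; nearly all actives have a fitted effect of over 50% in size; the assay follows cell death caused by Vpr and the record does not say whether a fall means rescue or toxicity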
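Fission yeast strain RE007, carrying one chromosomally integrated HIV-1 vpr copy, was seeded at OD 0.01 in PMG+AL medium with 23 nL pinned compound. After 24 h at 30 °C and 99% humidity, viability was read by BacTiter-Glo luminescence.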
Cruzain Triton = inhibitors of Trypanosoma cruzi cruzain with detergent. actives 0.43% (n = 200,000). AID 1478. P25779. purified cruzain, Z-FR-AMC fluorescence, 0.01% Triton. Potency, µM, for the others: max response, negative = inhibition, usual class: inhibitors;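 further: plate controls were neutral wells for no effect and buffer without enzyme for full effect; nearly all actives have a fitted effect of over 40% in size; top concentration of the series not given in the record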
Target sequence (P25779 123-467 limits assumed): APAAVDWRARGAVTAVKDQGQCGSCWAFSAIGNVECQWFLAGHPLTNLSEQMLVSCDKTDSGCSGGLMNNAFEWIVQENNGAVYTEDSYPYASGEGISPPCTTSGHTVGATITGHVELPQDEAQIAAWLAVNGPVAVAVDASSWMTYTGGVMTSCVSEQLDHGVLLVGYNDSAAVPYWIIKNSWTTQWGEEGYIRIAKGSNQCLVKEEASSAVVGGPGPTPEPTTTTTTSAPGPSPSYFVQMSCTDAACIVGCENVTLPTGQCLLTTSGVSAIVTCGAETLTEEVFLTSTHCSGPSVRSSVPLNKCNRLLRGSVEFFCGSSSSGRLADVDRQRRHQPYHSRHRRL
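Sodium acetate buffer (100 mM, pH 5.5) containing 5 mM DTT and 0.01% Triton X-100 hosted 1.5 nM cruzain and test compound for 15 min at room temperature. Cleavage of 2 uM Z-FR-AMC was then tracked by fluorescence.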
MARV entry inh = blocks Marburg virus binding to or entry into cells; Marburg virus pseudotyped entry inhibition, cell reporter; control for the full effect not named in the record; about a third of the inactives were read at about 46 µM; Potency, µM (series often up to 37.8 µM), without a hit: at the highest dose activity change, negative = inhibition, most hits filed as inhibitors; actives 1.8% (n = 300,000); AID 540276; active = well fitted inhibition curve with a large enough effect; inconclusive = small, poorly fitted or top-dose-only effect, or effect the other way; inactive = flat fitted curve, though single readings scatter; tested in HEK293 cells; about a fifth of its hits are not listed in these tables; further: on the % scale 0 is the no-effect control and ±100 the full control effect; luciferase read-out
Lassa entry inh = inhibitors of Lassa virus binding or cell entry; Potency, µM (top dose mostly 37.9 µM), for inactives: top-dose activity change, negative = inhibition, most hits filed as inhibitors; actives 1.2% (n = 300,000); Lassa virus pseudotype entry inhibition, cell reporter; control for the full effect not named in the record; active means well fitted inhibition curve with a large enough effect; inconclusive means small, poorly fitted or top-dose-only effect, or effect the other way; inactive means flat fitted curve, though single readings scatter; tested in HEK293 cells; further: on the % scale 0 is the no-effect control and ±100 the full control effect; nearly all actives have a fitted effect of over 50% in size; luciferase read-out
StopGo reporter = FMDV 2A StopGo reporter, luciferase signal; human cells with a luciferase reporter of 2A StopGo recoding; control for the full effect not named in the record; Potency, µM (series often up to 57.9 µM), for inactives: at the top dose signal change, negative = less light; actives 1.2% (n = 410,000); AID 1159524; active = well fitted falling curve with a large enough effect; inconclusive = small, poorly fitted or top-dose-only effect; inactive = no such curve, though single readings can be large or run the other way; tested in HEK293T cells; further: on the % scale 0 is the no-effect control and ±100 the full control effect; nearly all actives have a fitted effect of over 45% in size; luciferase light after 4 h
Cruzain noTriton = blocks cruzain activity in detergent-free assay | AID 1476 | purified cruzain, Z-FR-AMC fluorescence, no detergent | Potency, µM, for the others: max response, negative = inhibition, hits mostly inhibitors | P25779 | actives 2.3% (n = 200,000);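 further: plate controls were enzyme without inhibitor for no effect and buffer without enzyme for full effect; nearly all actives have a fitted effect of over 40% in size; top concentration of the series not given in the record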
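Purified cruzain at 1.5 nM, pre-incubated 15 min with compound at room temperature in 100 mM sodium acetate pH 5.5, 5 mM DTT, 0.00005% Triton X-100. Reaction started with 2 uM Z-FR-AMC; AMC fluorescence increase over 60 s gives rate.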
NS1 function inh = inhibitors of influenza NS1 protein function. AID 2326. Potency, µM (top dose mostly 46.1 µM), for the others: at the highest dose activity, positive = more growth. actives 0.4% (n = 270,000). S. cerevisiae slowed by influenza A NS1, growth recovery by OD600; active means well fitted rising curve with a large enough effect; inconclusive means small, poorly fitted or top-dose-only effect; inactive means no such curve, though single readings can be large or run the other way; further: nearly all actives have a fitted effect of over 50% in size
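Read-out: OD600 growth recovery of NS1-expressing budding yeast. Cells grown overnight at 30C in -URA glucose medium, washed, resuspended and diluted 1:100 in 2% galactose assay medium, pH 6.0. Same strain lacking NS1 served as positive control.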
SARS PLP yeast = inhibitors of SARS-CoV papain-like protease in yeast; S. cerevisiae expressing SARS-CoV PLpro, growth rescue; control for the full effect not named in the record; Potency, µM (doses to about 32.9 µM), for inactives: top-dose activity, positive = growth rescue; actives 0.19% (n = 330,000); active means well fitted rising curve with a large enough effect; inconclusive means small, poorly fitted or top-dose-only effect; inactive means no such curve, though single readings can be large or run the other way; further: 0% is about no effect; nearly all actives have a fitted effect of over 55% in size; growth read by luminescence after 48 h
Starred values were filed as active, the others as inactive; ? = inconclusive; . = not tested or not shown; & = joins results of further samples; [ ] = another dose, or the depositor's remark. Unless noted, the call rests on the fitted dose curve; in most records, active means well fitted curve in the direction sought with a large enough effect; inconclusive means small, poorly fitted or top-dose-only effect, or another doubt; inactive means no such curve, though single readings can be large; an effect the other way counts as inactive or inconclusive. Potency means the concentration at half of the fitted maximal effect.

SMILES	RE007 growth inh	Cruzain Triton	MARV entry inh	Lassa entry inh	StopGo reporter	Cruzain noTriton	NS1 function inh	SARS PLP yeast
CC(=O)N1CCN(c2ccccc2NC(=O)c2cc(Br)ccc2Cl)CC1	16%	-2.1%	-6%	-8%	-14%	3%	5%	?
Cc1cc(C=C2C(=O)N(C)C(=S)N(C)C2=O)c(C)n1C1CCCC1	19%	-7.1%	?	-3%	4%	-2%	7%	-2%
COc1cc(OC)cc(C(=O)NC2=NCCS2)c1	0%	1.5%	17%	-30%	47%[activator]	-7%	-8%	-8%
Cc1c(NC(=S)N/N=C/c2ccc(Br)cc2)c(=O)n(-c2ccccc2)n1C	17%	.	-27%	-23%	-13%	.	1%	1%
Cc1cc(C(=O)CCC(=O)N(C)CC(=O)Nc2ccc(OC(F)(F)F)cc2)c(C)s1	-6%	.	2%	-17%	-1%	.	.	4%
CCOc1ccccc1N=Nc1c(C)[nH]n(-c2ccccc2)c1=O	4%	.	.	.	-16%	.	-3%	-4%
COCCCn1c(CCC(=O)O)ccc1-c1ccc(F)cc1	5%	-4.5%	31%	1%	-15%	?	10%	0%
Cc1ccc(OC(=S)Nc2ccc(F)cc2)cc1	7%	1.0%	18%	1%	4%	16%	9%	4%
CSC1=C(C#N)C(c2cccs2)CC(=O)N1C (stereo unspecified)	.	-6.1%	0%	.	.	10%	0%	?
COc1cc(OC)c2c(c1C(CCN1CCOCC1)c1ccc(N(C)C)cc1)OC(=O)CC2c1ccc(N(C)C)cc1 (stereo unspecified)	4%	.	.	.	-24%	.	-41%	4%
CC(C1=C(CCN(C)C)Cc2ccccc21)c1ccccn1 (stereo unspecified)	-11%	.	?	4%[46.1 µM]	-11%	.	.	.
O=C(Nc1ccc(CN2CCS(=O)(=O)CC2)cc1)c1ccc(Cl)cc1	-1%	.	-19%[46.1 µM]	-21%	-21%	.	6%	-3%
Cc1c(NC(=O)c2ccccc2NS(=O)(=O)c2ccc(F)cc2)c(=O)n(-c2ccccc2)n1C	-11%	2.8%	-7%&15%	?	.	-9%	-5%	7%
C[C@@H]1CC=C[C@H]2[C@H]1C(=O)N(Cc1ccccc1)[C@H]2c1ccc(-c2ccc(F)cc2)cc1F	24%	.	.	.	0%	.	-13%	-4%
COc1cc([N+](=O)[O-])ccc1NC(=O)N1CCC2(CC1)Nc1ccccc1-n1cccc12	.	-2.1%	.	-1%[46.1 µM]	-17%	25µM*	.	.
CC(C)CC(=O)Nc1ccc2oc(-c3cccnc3)nc2c1	-1%	-0.4%	17%	2%	.	6%	-15%	-5%
COc1ccc(CNCCNC(=O)c2ccco2)c(OC)c1OC	2%	1.9%	-1%	14%	-21%	0%	-7%	7%
COC(=O)c1c(NC(=O)c2ccc(Br)o2)sc(C)c1C	-6%	-14%	10%	13%	.	8%	4%	8%
Cc1cc(C(=O)NP(=O)(N2CCOCC2)N2CCOCC2)c(C)n1C1CC1	2%	.	.	.	3%	.	13%	-2%
CCC(=O)c1ccc(OCCn2cncn2)cc1	6%	6.3%	0%[46.1 µM]	-4%	18%	-5%	1%	3%
Cc1ccc(C)c(CSc2nnc([C@@H](N)C(C)C)o2)c1	-1%	1.5%	13%	13%	-8%	3%	2%	1%
COc1cc(/C=C2/C(=N)N3OC(C)=CC3=NC2=O)ccc1OC(=O)c1ccco1	-4%	.	4%[46.1 µM]	17%	-8%	.	.	2%
COc1ccc(-c2cc(C(=O)NCc3cc(OC)c(OC)c(OC)c3)[nH]n2)cc1	.	-3.7%	.	3%[46.1 µM]	-9%	15%	.	.
COc1cccc(C(=O)C[n+]2ccccc2/C=N/O)c1	1%	-2.7%	9%[46.1 µM]	6%	-9%	-6%	14%	14%
CCCOc1ccc(NC(=O)CC2C(=O)N(c3ccc(C)cc3)C(=O)N2CCc2ccncc2)cc1 (stereo unspecified)	.	-6.0%	.	-26%[46.1 µM]	-11%	?	.	.
CCC(CC)NC(=O)CN(c1ccccc1OC)S(=O)(=O)c1cccs1	6%	.	-2%	.	-4%	.	2%	-3%
CCCCNC(=O)C1CCN(c2nc3ccccc3nc2C(F)(F)F)CC1	.	2.2%	.	18%[46.1 µM]	-16%	0%	.	.
c1ccc(-c2ncc(CSc3nncn3-c3ccccc3)s2)cc1	-6%	-1.6%	-4%[46.1 µM]	11%	-4%	12%	-58%	-4%
CCOc1cc(/C=N/n2nnnc2N)ccc1OCc1c(C)no[n+]1[O-]	1%	-4.0%	-7%	0%	?	12%	-4%	-10%
Cc1ccsc1C1C(C#N)=C(N)N(N(C)C)C2=C1C(=O)CC(C)(C)C2 (stereo unspecified)	-18%	.	?	?	-10%	.	.	0%
CCCn1c(=N)n(CC(=O)O)c2ccccc21	4%	.	3%	-2%	0%	.	.	.
c1ccc(NC(=NCc2ccco2)c2ccccc2)cc1	-4%	5.2%	-2%	7%	.	-8%	-6%	-2%
O=C(c1ccc(S(=O)(=O)Cc2ccccc2Cl)c([N+](=O)[O-])c1)N1CCN(c2ccccn2)CC1	-9%	.	?	-4%	16µM*	.	.	-1%
O=C(COC(=O)c1cccnc1Cl)Nc1cc(S(=O)(=O)N2CCCCC2)ccc1Cl	-3%	.	-13%[46.1 µM]	?	?	.	4%	0%
CC[C@H](C)[C@@H]1NC(=O)c2cc([N+](=O)[O-])cc(F)c2OCC[C@@H](C(N)=O)NC(=O)[C@H](CCCCN)NC1=O	10%	-0.7%	-3%	5%	-1%	?	9%	0%
c1ccc(Cc2nn3c(C4COc5ccccc5O4)nnc3s2)cc1 (stereo unspecified)	10%	-0.7%	21%	4%	.	-2%	-101%	28%
CCOc1ccc(/C(O)=C2/C(=O)C(=O)N(CCN(C)C)C2c2ccccc2)cc1Cl (stereo unspecified)	-12%	-6.1%	?	15%	-10%	-5%	-2%	27%
CCOC(=O)c1c(NC(C)=O)sc2c(O)c(Br)cc(Br)c12	-10%	-9.9%	9%	-16%	-8%	-5%	21%	-50%
CSc1nnc(-c2ccc(S(=O)(=O)N3CCCCC3)cc2)o1	0%	.	4%[46.1 µM]	0%	-16%	.	-9%	0%
CCCCC(CC(O)COCC(C)C)C(=O)NN (stereo unspecified)	15%	.	?	?	10%	.	-1%	-1%
O=C(CC1Nc2ccccc2NC1=O)Nc1ccccc1 (stereo unspecified)	0%	-10%	?	-28%	58%[activator]	?	6%	?
CCN(C(=O)c1cc(S(=O)(=O)N2CCc3ccccc32)cn1C)c1ccccc1	10%	.	.	.	0%	.	-5%	-8%
Cn1c(=O)c(C(=O)NCc2ccc(Cl)cc2)c(O)c2ccccc21	35%	.	6%	2%	2%	.	-7%	-6%
Cc1ccccc1NC(=O)c1ccc(CN(c2ccccc2)S(=O)(=O)c2ccccc2)cc1	0%	-2.3%	12%	-20%	-16%	?	0%	-10%
CCOc1ccc(OCC)c(NS(=O)(=O)c2cccc3nsnc23)c1	-9%	-6.0%	-9%&-9%	5%	22%	-1%	?	-1%
CCOC(=O)c1sc(NC(=O)CSc2nc3c(cc2C#N)CCCCC3)c(C#N)c1C	6%	3.7%	4%	-1%	?	?	8%	-3%
Oc1ccc(N2CCN(C(=S)NCc3ccccc3)CC2)cc1	5%	.	3.2µM*	-29%[46.1 µM]	53%[activator]	.	5%	-1%
O=C(c1ccco1)N1N=C(c2ccc3nccnc3c2)CC1c1ccccc1 (stereo unspecified)	7%	.	.	.	-4%	.	-1%	-1%
Cc1oc2ncn(C)c(=O)c2c1C(=O)NC(C)c1ccccc1 (stereo unspecified)	.	3.4%	.	-3%[46.1 µM]	0%	8%	.	.
COc1cc(/C=C2\N=C(c3ccccc3)OC2=O)ccc1OC(C)=O	4%	.	.	.	4%	.	8%	5%
CC(=O)N(Cc1ccccc1)c1nc(-c2ccccc2)cs1	13%	.	.	.	-6%	.	-1%	-1%
COc1ccc(NC(=O)C(Cl)=C(Cl)Cl)cn1	0%	.	?	?	-7%	.	.	2%
COC(=O)c1sccc1NC(=O)c1cc(-c2cccc(C)c2)nc2ccccc12	2%	0.0%	-17%	8%	-27%	10µM*	0%	1%
CCCCOc1ccc(/C=N/NC(=O)c2csc(C)c2C)cc1	32%	-6.1%	-24%	?	?	-1%	2%	-5%
COc1ccc(NC(=O)COc2ccc(C)c(C)c2)cc1S(=O)(=O)N1CCCCC1	10%	.	?	?	?	.	.	2%
CN(Cc1ccc(Cl)cc1)C(=O)c1ccc2ccccc2n1	5%	.	?	-20%[46.1 µM]	8%	.	-10%	0%
CCn1c2ccccc2c2cc(C3C(C#N)=C(N)OC4=C3C(=O)CC(C)(C)C4)ccc21 (stereo unspecified)	.	1.1%	-2%	.	.	-25%	-2%	0%
O=C1NC(NS(=O)(=O)c2ccccc2)(C(F)(F)F)C(=O)N1c1ccc(F)cc1 (stereo unspecified)	-5%	0.5%&0.1%	1%[46.1 µM]	3%[46.1 µM]	-19%&0%	-5%&-7%	-2%	-10%
CCOc1ccc(N(CC(=O)NN=C2CCN(C)CC2)S(C)(=O)=O)cc1	5%	1.8%	21%	6%	-18%	3%	5%	3%
CCc1cccc(CC)c1NC1=NS(=O)(=O)c2ccccc21	.	-0.6%	-12%[46.1 µM]	-2%[46.1 µM]	-19%	-5%	.	.
O=C(O)c1ccccc1C=NN1CCCCCC1	7%	.	17%[46.1 µM]	0%[46.1 µM]	5%	.	.	.
Cc1cccc(-n2c(-c3csc4ccccc34)n[nH]c2=S)c1	-12%	?	2%	1%	-22%	?	9%	13%

The order is random; about 4.7% have a hit in one of these screens.
